Screening results from PubChem.
D2 agonist = human D2 receptor agonism in beta-arrestin assay | P14416 | DiscoveRx PathHunter D2 beta-arrestin, luminescence, 90 min; 100% = 57 uM dopamine signal | activation, % (test concentration not listed) | actives 0.084% (n = 360,000); in the data active = activation above about 40%; inconclusive = about 15% to 40%; inactive = below about 15%; also: compound concentration not given in the record; the text of the record calls up to 30% inactive
Target sequence (P14416 whole entry, looked up): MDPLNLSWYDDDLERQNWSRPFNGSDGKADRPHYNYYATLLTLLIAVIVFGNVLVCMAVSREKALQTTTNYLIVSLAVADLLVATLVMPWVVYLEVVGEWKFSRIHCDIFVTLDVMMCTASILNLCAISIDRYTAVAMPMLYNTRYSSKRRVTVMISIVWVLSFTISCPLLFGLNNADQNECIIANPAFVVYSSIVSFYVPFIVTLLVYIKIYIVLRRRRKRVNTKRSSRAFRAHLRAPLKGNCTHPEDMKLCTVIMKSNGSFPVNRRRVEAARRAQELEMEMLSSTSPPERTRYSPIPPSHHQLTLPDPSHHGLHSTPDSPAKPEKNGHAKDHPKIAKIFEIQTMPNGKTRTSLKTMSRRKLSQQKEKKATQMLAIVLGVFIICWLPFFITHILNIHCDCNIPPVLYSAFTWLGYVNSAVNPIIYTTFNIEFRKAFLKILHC
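DiscoveRx PathHunter D2 beta-arrestin cells (2,100/well) attached overnight, then compound-stimulated 90 min at 37 C in HBSS/10 mM HEPES/0.1% Tween-20 buffer; beta-galactosidase complementation read by luminescence after 1 h at ambient temperature. Dopamine 57 uM final (EC100) as control.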
Menin-MLL FL inh = displaces fluorescein MLL peptide from human menin | Fluorescence polarization, fluorescein-MLL peptide displacement from menin | FP activity change, % at 61.4 µM | 290,000 tested, under 10 active; inconclusive = falling polarisation curve, or a change in total fluorescence; inactive = total fluorescence flat and polarisation flat or rising; no compound was filed as active; the % refers to the polarisation; negative = inhibition;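 also: % of control where 0% means no effect; inhibitors lower the polarisation; unlabelled MLL peptide was the positive control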
PINK1 expr mod = modulators of PINK1 expression; PINK1 immunofluorescence, high-content cytometry, 24 h; Potency, µM (titrated, usually from 76.6 µM), inactives show top-dose activation (PINK1 increase), most hits filed as activators; actives 0.2% (n = 410,000); AID 624263; active = well fitted activation curve with a large enough effect; inconclusive = small, poorly fitted or top-dose-only effect; inactive = flat fitted curve, though single readings scatter; cell line not stated here;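 also: potency is read from the fitted curve at half-maximal effect; % of control where 0% means no effect; nearly all actives have a fitted effect of over 65% in size; a mitochondrial uncoupler was the plate control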
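A stable cell line was treated with compounds at 5 concentrations for 24 hours, with CCCP as control. PINK1 levels and mitochondrial localization were measured by immunofluorescence with mitochondrial, cell and nuclear markers after fixation, read by laser-scanning cytometry.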
Sfp inh = Sfp phosphopantetheinyl transferase inhibition; actives 3.5% (n = 310,000); Q9F4F7; Potency, µM, for the others: max response, negative = inhibition, usual class: inhibitors; AID 1490; Biochemical Sfp PPTase activity, qHTS; active = well fitted inhibition curve with a large enough effect; inconclusive = small, poorly fitted or top-dose-only effect, or another doubt; inactive = no such curve, though single readings can be large or run the other way;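 also: the enzyme is Sfp with the accession as filed and its product quenches rhodamine fluorescence; potency is read from the fitted curve at half-maximal effect; 0% = enzyme reaction without inhibitor and -100% = no enzyme wells; top concentration of the series not given in the record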
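Fluorescence-quenching assay: 15 nM Sfp-PPTase preincubated 15 min at room temperature with compound, then 5 uM rhodamine-CoA and 12.5 uM BHQ-2-labelled YbbR peptide added. Fluorescence (ex 525/em 598 nm) read at start and after 30 min; difference gives rate.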
gsp ag = activates gsp, the McCune-Albright syndrome mutation | gsp mutant cells, cAMP HTRF, 30 min; control for the full effect not named in the record | Potency, µM (top dose mostly 76.9 µM), without a hit: at the top dose activation (cAMP increase), usual class: activators | actives 0.13% (n = 340,000) | AID 624287; active = well fitted activation curve with a large enough effect; inconclusive = small, poorly fitted or top-dose-only effect, or another doubt; inactive = no such curve, though single readings can be large or run the other way; cell line not stated here;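 also: phosphodiesterase inhibitor Ro 20-1724 added with compounds to block cAMP breakdown; potency is read from the fitted curve at half-maximal effect; nearly all actives have a fitted effect of over 60% in size; about a fifth of the inactives were tested at one dose only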
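Cells in DMEM/10% FBS with G418 were pretreated with compounds in DMSO plus […] (300 uM stock) for 30 min at 37C. cAMP was measured by HTRF (cAMP-d2 plus anti-cAMP antibody-K) after 30 min at room temperature.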
ClpP mod = qHTS Assay for Activators of ClpP. Potency, µM (titrated, usually from 57.5 µM), for the others: at the top dose activity change, negative = active. actives 1.9% (n = 340,000). purified B. subtilis ClpP, FRET peptide cleavage, 20 min. ATP-dependent Clp protease proteolytic subunit (Bacillus subtilis (strain 168)), P80244; active = well fitted falling curve with a large enough effect; inconclusive = small, poorly fitted or top-dose-only effect; inactive = no such curve, though single readings can be large or run the other way; also: potency is read from the fitted curve at half-maximal effect; the source files actives as falling curves though it sought activators and does not explain the sign; nearly all actives have a fitted effect of over 65% in size; many hits overshoot -100%
Target sequence (P80244 whole entry, looked up): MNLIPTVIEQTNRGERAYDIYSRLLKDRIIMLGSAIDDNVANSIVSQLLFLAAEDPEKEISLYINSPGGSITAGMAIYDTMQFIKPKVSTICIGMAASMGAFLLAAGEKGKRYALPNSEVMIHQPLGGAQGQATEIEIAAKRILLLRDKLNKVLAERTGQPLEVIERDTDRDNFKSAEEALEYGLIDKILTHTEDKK
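Purified B. subtilis ClpP, 10 microg/mL final in Tris/HCl pH8 with KCl, BSA, glycerol and Tween-20, cleaved an Abz/nitrotyrosine-quenched decapeptide. Fluorescence (ex 320, em 430) was read at 0 and 20 min at room temperature. Delta was normalized to 5.8 microM ADEP and DMSO/no-enzyme controls.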
gsp antag = antagonizes gsp, the McCune-Albright syndrome mutation | gsp-mutant cells, cAMP HTRF, 30 min; control for the full effect not named in the record | Potency, µM (highest dose often 76.9 µM), for inactives: at the top dose activity change, negative = inhibition, usual class: inhibitors | actives 0.4% (n = 340,000); active = falling curve of any shape with a large fitted effect; inconclusive = falling curve, mostly with a smaller effect; inactive = flat or rising curve; cell line not stated here;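 also: intracellular cAMP measured with PDE inhibitor Ro 20-1724 present during compound exposure; potency is read from the fitted curve at half-maximal effect; % is scaled to controls: 0 for no effect and ±100 for the full control effect; nearly all actives have a fitted effect of over 65% in size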
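G418-selected cells were plated in DMEM/10% FBS for 16-24 h at 37C, then treated with compounds plus the PDE inhibitor […] (300 uM solution added) for 30 min at 37C. Intracellular cAMP was measured by HTRF after 30 min lysis at room temperature.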
An asterisk follows results filed as active; [ ] = remark or other dose.

`CCCCc1c(O)nc(SCC(=O)NCC2CCCO2)[nH]c1=O` (stereo unspecified) gave D2 agonist -2.1, Menin-MLL FL inh 0.3, PINK1 expr mod 0.4%, Sfp inh 20.6%, gsp ag inconclusive, ClpP mod -0.5% and gsp antag 0.4%.
Screening O=S(=O)(NCc1nc2ccccc2[nH]1)c1ccccc1 returned D2 agonist -3.1, PINK1 expr mod 0.9%, Sfp inh 11.4%, gsp ag 21.5%, ClpP mod 0.3% and gsp antag -0.8%.
Screening S=C(Nc1ccc(Br)cc1)N1CCN(c2ccccn2)CC1 returned D2 agonist 1.5, Menin-MLL FL inh -1.4, PINK1 expr mod 2.5%, Sfp inh 12.2%, gsp ag -13.0%, ClpP mod -19.4% and gsp antag inconclusive.
For CC(=O)C1=C(O)C(=O)N(c2ccc(F)cc2)C1c1ccc(C)cc1 (stereo unspecified) the results were D2 agonist 8.9, Menin-MLL FL inh 9.6, PINK1 expr mod 2.1%, Sfp inh 17.7%, gsp ag inconclusive and gsp antag 4.7%.
For COc1cccc(NC(=O)N2CCN(c3ccc(C(F)(F)F)cn3)CC2)c1 the results were D2 agonist -3.8, Menin-MLL FL inh -0.3, PINK1 expr mod 0.0%, Sfp inh 5.3%, gsp ag -15.1%, ClpP mod -3.6% and gsp antag 3.8%.
`COc1cccc(NC(=O)CN(C)C(=O)c2c(C)noc2C)c1` gave D2 agonist -2.2, PINK1 expr mod -1.6%, gsp ag 0.3%, ClpP mod -9.5% and gsp antag 29.7%.
`CC1CCN(C(=O)C2CCN(c3nnc(-n4cccc4)s3)CC2)CC1` gave D2 agonist -0.9, Menin-MLL FL inh 0.5, PINK1 expr mod 0.6%, Sfp inh 5.9%, gsp ag inconclusive, ClpP mod -1.6% and gsp antag -4.6%.
Screening Nc1nnc(CC(=O)N/N=C/c2cc([N+](=O)[O-])cc(Br)c2O)s1 returned D2 agonist -9.7, Menin-MLL FL inh -1.9, PINK1 expr mod 3.0%, Sfp inh -15.8%, gsp ag 1.9%, ClpP mod 3.0% and gsp antag -16.7%.
For Cc1ccc(/C(O)=C2\C(=O)C(=O)N(C)C2c2ccc(F)cc2)cc1 (stereo unspecified) the results were D2 agonist 2.6, Menin-MLL FL inh 0.8, PINK1 expr mod 0.3%, Sfp inh 8.8%, gsp ag 20.2%, ClpP mod -0.1% and gsp antag -0.3%.
Screening CC(=O)c1c(C)[nH]c(C(=O)COC(=O)CNS(=O)(=O)c2ccccc2)c1C returned D2 agonist 0.5, Menin-MLL FL inh 5.7, PINK1 expr mod -3.5%[38.3 µM], Sfp inh 12.9%, gsp ag -7.3%, ClpP mod 0.2% and gsp antag -20.7%.
`CCCCN(C(=O)c1cccc(N2C(=O)c3ccccc3C2=O)c1)c1c(N)n(CC(C)C)c(=O)[nH]c1=O` gave D2 agonist -4.3, PINK1 expr mod -1.0%, gsp ag -33.5%, ClpP mod 0.4% and gsp antag 5.1%.
`O=C(NCCCN1CCOCC1)c1ccc2nc(Cc3ccccc3F)oc2c1` gave D2 agonist -0.1, PINK1 expr mod -1.0%, Sfp inh 7.8%, gsp ag -15.9%, ClpP mod -3.7% and gsp antag -13.5%.
CC(=O)c1c(C)[nH]c(C(=O)OCn2nnc3ccccc3c2=O)c1C was read as D2 agonist -1.2, Menin-MLL FL inh inconclusive, PINK1 expr mod 6.0%, Sfp inh 6.0%, gsp ag 14.3%, ClpP mod -4.5% and gsp antag 1.6%.
Cc1ccc(C(=O)NC(=O)CSc2nncn2C)cc1 was read as D2 agonist -4.8, Menin-MLL FL inh 0.7, PINK1 expr mod 0.6%, Sfp inh 15.8%, gsp ag -21.0% and gsp antag 4.9%.
Screening C=CCn1c(SCC(=O)NCCCC)nc2scc(-c3ccco3)c2c1=O returned D2 agonist -2.6, Menin-MLL FL inh 4.4, PINK1 expr mod 0.7%, Sfp inh 20µM*, gsp ag 12.8%, ClpP mod -3.7% and gsp antag -36.5%.
For c1ccc(CN2CCC(Nc3ncnc4sccc34)CC2)cc1 the results were D2 agonist -3.9, Menin-MLL FL inh -2.6, PINK1 expr mod -1.8%, Sfp inh 15.4%, gsp ag -23.6%[15.4 µM] and gsp antag 8.2%.
For COC(=O)c1cc(-c2ccc(S(=O)(=O)N3CCCC3)cc2)c(C(F)(F)F)s1 the results were D2 agonist 0.9, Menin-MLL FL inh -2.0, PINK1 expr mod -0.3%, Sfp inh -6.7%, gsp ag 19.5% and gsp antag -8.8%.
For Cc1cccc(C(=O)Nc2ccc(N3CCN(C(=O)c4ccco4)CC3)cc2)c1 the results were D2 agonist 9.0, Menin-MLL FL inh -0.6, PINK1 expr mod 0.0%, Sfp inh 8.1%, gsp ag -20.2% and gsp antag -16.5%.
For Cc1ccc(C)c(N(CC(=O)NCc2ccco2)C(=O)CNS(=O)(=O)c2ccccc2)c1 the results were D2 agonist -2.3, Menin-MLL FL inh -3.2, PINK1 expr mod -1.6%, Sfp inh -5.2%, gsp ag 3.4%[15.4 µM] and gsp antag -6.4%.
O=C(CCCCn1c(=O)c2ccccc2n(Cc2ccccc2)c1=O)NC1CCN(Cc2ccccc2)CC1 was read as D2 agonist -11.3, Menin-MLL FL inh 0.6, PINK1 expr mod -1.3%, Sfp inh 0.7%, gsp ag 0.1%, ClpP mod -17.0% and gsp antag -14.9%.
Screening Cc1cc(C(=O)Nc2c(C)nn(Cc3c(Cl)cccc3Cl)c2C)no1 returned D2 agonist -3.1, Menin-MLL FL inh -1.7, PINK1 expr mod 3.9%[38.3 µM], Sfp inh 8.7%, gsp ag 14.4%, ClpP mod -0.5% and gsp antag 7.6%.
Screening CN1CCN(C(=O)/C(=C/c2ccco2)NC(=O)c2ccccc2)CC1 returned D2 agonist -4.3, Menin-MLL FL inh -3.7, PINK1 expr mod -0.8%, Sfp inh 10.9%, gsp ag inconclusive and gsp antag -1.7%.
`O=C(NCC1CCN(Cc2ccccc2F)CC1)Nc1cccc(Br)c1` gave D2 agonist -3.7, Menin-MLL FL inh 5.6, PINK1 expr mod 4.1%, Sfp inh 2.7%, gsp ag 6.2%[15.4 µM], ClpP mod -9.9% and gsp antag -13.3%.
For COc1cc(C(=O)Nc2ccc3c(c2)OCCO3)ccc1-n1cnnn1 the results were D2 agonist -1.8, Menin-MLL FL inh -0.6, PINK1 expr mod -15.6%[38.3 µM], Sfp inh 4.8%, gsp ag 20.9%, ClpP mod -1.4% and gsp antag 2.7%.
Cn1cnnc1SCC(=O)NC1CCCc2ccccc21 (stereo unspecified) was read as D2 agonist -4.8, Menin-MLL FL inh -0.3, PINK1 expr mod 1.8%, Sfp inh 2.2% and gsp ag -6.0%[15.4 µM].
`O=C(C1CCN(S(=O)(=O)c2cccc3cccnc23)CC1)N1CCN(c2ccccn2)CC1` gave D2 agonist -4.6, Menin-MLL FL inh 0.6, PINK1 expr mod -0.4%, Sfp inh 13.4%, gsp ag 11.4%[15.4 µM], ClpP mod -1.6% and gsp antag -14.1%.
`CCOC(=O)c1c(NC(=O)C(=O)N/N=C/c2ccccc2OC)sc2c1CCCCC2` gave D2 agonist -8.2, Menin-MLL FL inh -2.2, PINK1 expr mod 3.6%, Sfp inh -8.3%, gsp ag 1.1%[15.4 µM], ClpP mod -13.9% and gsp antag 7.7%.
Screening CCCn1ccnc1SC(C)C(=O)Nc1c(C)n(C)n(-c2ccccc2)c1=O (stereo unspecified) returned D2 agonist -3.3, PINK1 expr mod 1.2%, gsp ag 4.0%, ClpP mod 1.0% and gsp antag 13.5%.
Screening COC(=O)c1c(-c2ccccc2)csc1NC1=NS(=O)(=O)c2ccccc21 returned D2 agonist -1.0, Menin-MLL FL inh -13.3, PINK1 expr mod 12.9%, Sfp inh 15.9%, gsp ag -24.8%, ClpP mod 3.0% and gsp antag -10.8%.
For CCOc1ccc(CCNC(=O)COc2cc(=O)n(C)c3ccccc23)cc1OCC the results were D2 agonist -0.9, Menin-MLL FL inh 0.8, PINK1 expr mod 0.2%, Sfp inh -4.0%, gsp ag -24.0%, ClpP mod -2.0% and gsp antag 1.3%.
`COc1ccccc1OCCCCN1CCN(c2ccccc2OC)CC1` gave D2 agonist -2.7, Menin-MLL FL inh 1.2, PINK1 expr mod 1.1%, Sfp inh 56.2µM*, gsp ag 13.0%, ClpP mod 0.6% and gsp antag -2.4%.
Screening C=CCN(CC=C)C(=S)NC(=O)c1ccc(OC)cc1 returned D2 agonist -1.7, Menin-MLL FL inh 2.3, PINK1 expr mod 1.7%, Sfp inh -11.0%, gsp ag -8.1%[15.4 µM], ClpP mod -6.7% and gsp antag -6.1%.
CCOC(=O)COc1cccc2c(=O)n(CC(=O)NCc3ccc4c(c3)OCO4)ccc12 was read as D2 agonist -3.4, Menin-MLL FL inh -0.3, PINK1 expr mod 11.6%, Sfp inh 17.1%, gsp ag -28.3%, ClpP mod -28.7% and gsp antag 8.1%.
`O=C(Nc1nnc(C2CC2)s1)C1Cc2ccccc2CN1S(=O)(=O)c1ccccc1F` (stereo unspecified) gave D2 agonist 3.9, Menin-MLL FL inh 2.6, Sfp inh -3.8%, gsp ag -48.6%[inhibitor], ClpP mod 1.1% and gsp antag inconclusive.
For COc1ccc(OC)c(S(=O)(=O)CC(O)COc2ccccc2Cl)c1 (stereo unspecified) the results were D2 agonist -4.0, PINK1 expr mod 1.4%, Sfp inh -1.4%, gsp ag -41.3%[inhibitor], ClpP mod 0.2% and gsp antag 4.9%.
Screening CCOc1ccc(NC(=O)CSc2ccc3nnc(-c4ccccn4)n3n2)cc1 returned D2 agonist -0.1, Menin-MLL FL inh 8.1, PINK1 expr mod -0.8%, Sfp inh 5.5%, gsp ag inconclusive, ClpP mod 1.5% and gsp antag inconclusive.
`Cc1ccc(Nc2ccc3nonc3c2[N+](=O)[O-])cc1` gave D2 agonist -0.5, Menin-MLL FL inh -1.0, PINK1 expr mod -1.4%, Sfp inh 8.5%, gsp ag -41.6%, ClpP mod 0.2% and gsp antag -11.4%.
Screening Cc1ccc(-n2nnnc2SCC(=O)NNC(=O)c2ccco2)cc1C returned D2 agonist -2.6, Menin-MLL FL inh -7.4, PINK1 expr mod inconclusive, Sfp inh -5.2%, gsp ag -0.8%, ClpP mod -1.5% and gsp antag -3.6%.
N#C[C@H]1C2OC2c2ccccc2N1C(=O)c1ccccc1 (stereo partly specified) was read as D2 agonist 0.6, PINK1 expr mod 0.8%, ClpP mod 1.5% and gsp antag -6.9%.
